# PABP FP inh: blocks human PABP binding to poly(A) RNA; P11940; fluorescence polarization; inhibition, % at 35 µM; hit rate 1% among 290,000;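 active means 50% or more with normal probe brightness, or confirmed in later tests; about a fifth of its hits are not listed in these tables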;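 further: calls also rest on retests at 20 µM and on dose response follow-up; controls were probe without protein and protein plus probe with vehicle; some compounds called inactive have numbers as strong as hits; many hits fall short of the cut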
# Target sequence (P11940 whole entry, looked up): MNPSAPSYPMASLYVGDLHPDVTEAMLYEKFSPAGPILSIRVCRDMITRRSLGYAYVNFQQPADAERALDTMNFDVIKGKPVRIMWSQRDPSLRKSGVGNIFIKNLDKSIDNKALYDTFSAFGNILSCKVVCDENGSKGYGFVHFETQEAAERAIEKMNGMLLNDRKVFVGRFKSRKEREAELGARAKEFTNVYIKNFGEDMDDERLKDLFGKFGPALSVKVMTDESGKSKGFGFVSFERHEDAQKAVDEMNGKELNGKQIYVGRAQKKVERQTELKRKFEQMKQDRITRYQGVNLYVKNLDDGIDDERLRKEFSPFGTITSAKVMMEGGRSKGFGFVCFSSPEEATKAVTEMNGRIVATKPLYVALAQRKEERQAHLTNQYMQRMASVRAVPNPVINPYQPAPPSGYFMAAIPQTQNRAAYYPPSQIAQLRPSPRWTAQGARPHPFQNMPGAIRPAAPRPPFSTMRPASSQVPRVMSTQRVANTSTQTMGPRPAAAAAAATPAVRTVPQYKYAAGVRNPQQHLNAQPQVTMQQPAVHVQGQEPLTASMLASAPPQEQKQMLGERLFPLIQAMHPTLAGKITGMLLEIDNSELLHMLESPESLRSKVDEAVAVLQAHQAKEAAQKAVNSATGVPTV
# eIF4H FP inh: inhibitors of RNA binding by human eIF4H | eIF4H fluorescence polarization binding assay | hit rate 0.94% among 290,000 | inhibition, % at 35 µM;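 active means 50% or more with normal probe brightness, or confirmed in later tests; about a fifth of its hits are not listed in these tables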;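 further: calls also rest on retests at 20 µM and on dose response follow-up; 0% = protein and probe with vehicle and 100% = probe without protein; strong numbers were not always called active; many hits fall short of the cut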
# Rce1 inh: inhibitors of yeast Ras-converting enzyme; Q03530; yeast membranes, quenched prenylated peptide cleavage fluorescence; calls only; hit rate 0.27% among 290,000;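 active means fall in fluorescence gain of 50% or more versus controls, with final raw signal at or below 3038400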;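 further: plate controls were neutral control wells for no effect and wells lacking membranes for full effect; tested at 10 µM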
# Target sequence (Q03530 whole entry, looked up): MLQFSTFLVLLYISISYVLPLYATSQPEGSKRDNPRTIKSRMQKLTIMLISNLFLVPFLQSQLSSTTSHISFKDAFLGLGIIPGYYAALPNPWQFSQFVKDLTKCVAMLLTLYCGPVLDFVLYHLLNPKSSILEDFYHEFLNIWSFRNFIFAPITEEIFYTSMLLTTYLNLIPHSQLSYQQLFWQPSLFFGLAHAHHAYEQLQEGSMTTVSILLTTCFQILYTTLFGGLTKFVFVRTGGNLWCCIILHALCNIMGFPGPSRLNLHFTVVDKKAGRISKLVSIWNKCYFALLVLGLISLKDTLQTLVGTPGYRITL
# Env fusion inh: HIV envelope-mediated fusion inhibition; HeLa-JRFL Env/CEM21 cell fusion, luciferase; inhibition, % at 12.3 µM; hit rate 1.1% among 360,000; AID 651610;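 active means mean replicate inhibition score of at least 50 and every replicate individually at or above 50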;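 further: 0% = plate neutral controls and 100% = maraviroc near 300 nM; one replicate is shown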
# Yeast UUG start: alters start codon recognition fidelity in yeast | hit rate 0.13% among 350,000 | AID 602363 | activity score, % at 18.7 µM | S. cerevisiae UUG-firefly luciferase reporter, luminescence/redox ratio;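 active means replicate mean at a twofold rise or more, about +100% in these data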;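 further: firefly luciferase made from a UUG start codon reports start codon fidelity; reporter light over untreated wells divided by growth signal over untreated wells; some hits fall short of that in this replicate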
# CSC inhib: cancer stem cell inhibition | inhibition, % at 7.5 µM | cancer stem cell-like cells viability, luminescence | hit rate 1.1% among 300,000;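 active means mean at 75% or more and at least half the replicates too; tested in HMLE shEcad cells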;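 further: 0% = median of negative and 100% = median of positive control wells; the first replicate is given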
# MT1-MMP act inh: MT1-MMP (human) activation inhibition; hit rate 0.061% among 360,000; P50281; HT1080 RFP-PRO-GFP cells, GFP/RFP ratio fluorescence, overnight; percent of plate control window, DMSO zero; GFP/RFP ratio change, % at 20 µM;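 active means GFP/RFP ratio change of at least 30% with cell ATP level not reduced by more than half and red fluorescence within 50% of control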; further: strong numbers were not always called active
#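 Assay system – RFP-PRO-GFP reporter HT1080 cells · Compound dosing – single dose of 20 µM compound, 1% DMSO final · Incubation – overnight compound exposure at 37 °C · Measure – GFP/RFP fluorescence ratio · Benchmarks – DMSO wells and RFP-L50D-GFP cells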
# eIF4H FP inh retest: recorded beside eIF4H FP inh, whose call it bears; inhibition, %; compound at 20 µM; confirmation average;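 mean of two retest wells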
# PABP FP inh retest: second read-out of PABP FP inh, no call of its own (marks repeat the call); inhibition, %; compound at 20 µM; confirmation repeats;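 mean of two retest wells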
# MT1-MMP act inh RFP: further read-out of MT1-MMP act inh, marked with its call; RFP signal change, %; measured here: RFP expression control read;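 0 = vehicle wells; hits needed this value within 50% of zero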
# The depositor's hits bear a star; i = inactive; / = not tested or not shown. These rows are one share of the data (hit frequency here may not be typical).
SMILES,PABP FP inh,eIF4H FP inh,Rce1 inh,Env fusion inh,Yeast UUG start,CSC inhib,MT1-MMP act inh,MT1-MMP act inh RFP,others
Cc1ccc(SCC(=O)OCC(=O)N(C)CC(=O)Nc2ccccc2Cl)cc1C,9.2,-1.1,i,/,-27.2,-10.0,1.5,3.1,
CCC(=O)N1CCc2cc(S(=O)(=O)CCC(=O)NCc3ccco3)ccc21,-0.1,4.4,i,2.3,/,-7.6,-3.1,0.4,
Cc1nn(-c2ccccc2)c(C)c1C(=O)NNC(=O)C(F)(F)F,-0.4,-7.8,i,-23.7,8.9,-4.4,-0.1,1.6,
COc1ccc(NC(=O)C2(N(CC(C)C)C(=O)Cn3nnnc3N)CCCCC2)cc1,-5.2,-0.3,i,-61.5,-22.5,9.5,-1.7,-2.5,
CCC(=O)NS(=O)(=O)c1cccnc1Nc1ccccc1Cl,27.5,-1.1,i,/,-13.2,-11.0,1.9,9.6,
COC(=O)c1c(CCl)noc1C(=O)NCC1CCCO1 (centres undefined),-5.8,-0.8,/,11.1,-15.9,-8.5,0.9,1.4,
CCOC(=O)N1CCN(C(=O)c2cn(C)c3ccc(S(=O)(=O)N4CCCC4)cc3c2=O)CC1,12.1,-0.2,i,-64.2,-6.6,-14.3,0.7,1.1,
COc1cnc(-c2cccc(C(F)(F)F)c2)[nH]c1=O,-5.4,5.0,i,-12.7,/,-6.0,3.7,7.2,
Cc1occc1-c1nnc(SCC(=O)NC2CCC(C)CC2)o1 (centres undefined),/,/,/,2.1,-8.1,/,-2.8,3.5,
CC(Sc1nnnn1C)C(=O)Nc1cc(S(=O)(=O)N2CCCCC2)ccc1Cl (centres undefined),/,/,/,6.0,-1.0,-10.4,1.4,0.4,
Cc1ccc(-c2csc(NC(=O)Cc3ccc(F)cc3)n2)o1,0.6,-1.0,i,12.6,-28.4,3.1,-4.8,-3.8,
Cc1cc(NC(=O)NCc2ccccc2)c(=O)n(Cc2ccccc2F)c1,-1.7,-6.4,i,18.4,-11.1,-8.6,-10.6,-8.1,
Cc1cccc(C)c1NC(=O)CN1C(=O)NC(C)(CCc2ccccc2)C1=O (centres undefined),-18.6,0.1,i,-24.9,/,-19.0,2.9,4.1,
N#CCSc1nc2c(c(C3CC=CCC3)c1C#N)CCC2 (centres undefined),5.4,6.0,i,-3.5,-1.9,2.0,-4.3,1.1,
OCC[C@H]1C[C@H](O)[C@@H](O)[C@@]2(CCc3ccccc3O2)O1,/,/,/,-30.9,-15.8,1.3,4.1,5.1,
CCn1c2ccccc2c2cc(NC(=O)c3ccc([N+](=O)[O-])cc3)ccc21,1.1,-1.6,i,/,/,19.2,5.4,5.0,
O=C(CSc1ccc(-c2cccs2)nn1)Nc1ccccc1,-0.7,1.7,i,-9.9,/,12.1,0.7,-8.1,
COc1cc(/C=C/C(=O)OCC(=O)N2CCOCC2)ccc1OCC#N,-11.3,-5.2,i,0.2,/,-7.2,2.1,2.6,
O=C(NCCc1ccc(Cl)cc1)C1CCC(CNc2nc(=S)[nH]c3ccccc23)CC1 (centres undefined),-11.6,-10.2,i,-18.1,-18.9,47.4,0.5,-5.0,
CN(C)C1=C(Cl)C(=O)N(c2ccc(Cl)c(Cl)c2)C1=O,5.8*,99.3,i,-1.3,-22.3,-17.8,4.3,1.8,eIF4H FP inh retest=18.3;PABP FP inh retest=55.2*
COc1cccc(-c2ccc(NC(=O)C3CCCN(Cc4cnn(C)c4)C3)cc2)c1 (centres undefined),-10.5,-13.8,i,-1.3,-15.9,6.3,3.7,1.9,
Cc1ccc(-c2noc(COc3ccc4c(c3)OCO4)n2)cc1,-1.9,-4.1,/,/,/,-8.3,3.5,6.4,
CC1=C(C)CC(C(=O)Nc2nc(-c3ccc(F)cc3)c(C)s2)C(C(=O)O)C1 (centres undefined),1.9,0.1,i,2.7,/,0.9,1.6,4.1,
CCc1nc2ccc(C(=O)NC3CCC(C)CC3)cc2nc1CC (centres undefined),3.6,84.7,i,-33.8,-12.1,-6.5,3.6,-2.4,eIF4H FP inh retest=3.5;PABP FP inh retest=10.9
C/C(=N\NC(=O)c1cccc(N/N=C(\C)c2cc(O)ccc2O)c1)c1cc(O)ccc1O,13.8,26.3,/,-3.7,/,37.1,-0.6,-4.4,
Cc1cc(C(=O)C(=O)O)c(C)n1-c1ccc(Cl)c(Cl)c1,3.6,0.8,i,23.3,-3.3,-15.4,1.9,4.7,
CCOC(=O)C1(S(=O)(=O)c2ccc(Cl)cc2)CCN(Cc2ccc(Cl)cc2)CC1,-1.8,-7.2,i,12.1,-0.4,37.4,-1.5,-13.8,
Cn1c(N2CCN(C(=O)NCc3ccccc3)CC2)nc2ccccc21,-8.9,0.2,i,26.4,-3.8,-11.9,12.2,5.8,
Cc1cc(C(F)(F)F)nn1CC(=O)N1CCOCC1,2.5,-2.7,i,/,-14.9,5.8,-2.6,0.9,
Cc1nc2c(ccc3nc(NC(=O)Cc4ccccc4)sc32)s1,7.0,-10.4,i,-55.9,-22.8,60.7,-1.8,-4.1,
Cc1ccc(C(CNS(=O)(=O)c2ccc(C)cc2)N2CCN(C)CC2)cc1 (centres undefined),/,/,i,11.1,12.6,/,-1.8,1.5,
O=c1[nH]c2ccccc2cc1CN(Cc1cccnc1)S(=O)(=O)c1ccc(Cl)cc1,0.4,-3.9,i,4.5,-20.1,3.0,-2.5,-1.7,
O=C(NS(=O)(=O)c1ccccc1Cl)c1ccc[nH]1,4.3,-4.3,i,/,/,-17.2,/,/,
CCOC(=O)NN1C(=O)c2ccccc2NC12CCCC2,-0.4,9.6,i,8.0,/,2.4,-1.7,0.5,
Cc1ccc(S(=O)(=O)N2CCN(C(=O)CN3C(=O)NC(C)(CCC(C)C)C3=O)CC2)c(C)c1 (centres undefined),/,/,/,1.7,-34.7,/,2.6,-16.8,
CCC(C)(C(=O)NC1CCCC1)N(C(=O)c1ccccn1)c1ccc(C)cc1 (centres undefined),-1.8,-0.7,i,-59.7,-9.6,-7.3,-2.4,0.0,
Cc1c(Cl)cccc1-c1ccc(CNCc2ccccn2)o1,45.1,3.1,i,5.7,11.2,13.2,-8.9,1.6,
COc1ccc(-n2c(SCC(=O)Nc3ccc(C(=O)O)cc3)nnc2-c2cccs2)cc1,9.7,-11.0,i,-61.7,-17.7,-8.7,-2.5,2.0,
Cc1cccc(C(=O)NCCNc2nc3cc(C)c(C)cc3cc2C)c1,-16.1,-0.9,i,-2.0,/,57.7,-1.4,1.1,
COc1ccc(OC)c(S(=O)(=O)n2nnc3cc(Cl)ccc32)c1,-2.2,-1.0,i,-16.6,-17.6,-4.2,1.5,-2.3,
COc1ccc(CNC(=O)C2CCN(S(=O)(=O)N3CC(C)CC(C)C3)CC2)cc1 (centres undefined),1.6,-8.4,i,3.5,-5.3,-3.7,0.2,-6.0,
COc1ccc(OCC(=O)N2N=C(C(F)F)CC2(O)C(F)F)cc1 (centres undefined),-0.1,-7.8,i,-67.8,/,/,7.3,6.5,
COc1ccccc1C(=O)Nc1ccc(OCc2nnc3c4ccccc4c(C)nn23)cc1,8.3,-3.0,i,-93.2,/,6.1,0.2,-2.0,
S=c1[nH]nc(-c2ccn[nH]2)n1-c1ccccc1Cl,4.9,-9.7,i,-23.7,/,-3.8,1.6,0.1,
COc1cccc(C(=O)Nc2ccc(C)cc2)c1,-5.9,4.9,i,-149.0,-25.8,4.1,6.3,1.0,
Cc1cc(C)cc(NC(=O)N2CCC(NC(=O)c3ccco3)CC2)c1,1.2,-16.8,/,2.5,-3.7,-9.9,3.4,1.5,
O=c1[nH][nH]c(C(F)(F)F)c1C=NCc1cccs1,-5.7,-1.0,i,-7.0,-6.1,-12.3,1.2,0.8,
CC1(C)CC(=O)C=C(NCCc2ccc(S(N)(=O)=O)cc2)C1,7.9,4.5,i,/,-6.0,-2.5,0.6,0.7,
COc1ccc(C(C)=O)c2c1OCCO2,6.4,-6.7,i,/,-17.8,-14.1,-0.8,4.0,
Cc1cc(N2CCCC2)ccc1NC(=O)COc1ccc(Cl)cc1,/,/,/,/,-12.7,-10.1,-11.1,-3.1,
# (further entries)
SMILES,PABP FP inh,eIF4H FP inh,Rce1 inh,Env fusion inh,Yeast UUG start,CSC inhib,MT1-MMP act inh,MT1-MMP act inh RFP,others
CC1(C)SC2c3ccccc3C(=O)N2[C@@H]1C(=O)NC1CC1 (some centres undefined),/,/,i,3.0,/,-4.9,-2.5,-1.6,
O=C(COc1ccccc1)NNC(=S)NC(=O)c1ccc(Cl)cc1Cl,0.6,13.0,/,/,/,-3.4,/,/,
FC(F)(F)c1ccc(N2CCOCC2)c(Nc2nc3ccccc3n3cnnc23)c1,-9.2,-4.1,i,/,-4.5,13.8,-5.1,0.0,
Cc1nnc(N2C(=O)C(=O)/C(=C(/O)c3ccc4c(c3)OCCO4)C2c2cccc([N+](=O)[O-])c2)s1 (centres undefined),/,/,/,-14.1,-26.2,/,-2.4,3.0,
O=C(CN1C(=O)COc2ccc(S(=O)(=O)N3CCCCC3)cc21)NCc1ccc(Cl)cc1,/,/,i,12.0,-14.1,-8.9,-0.9,-1.8,
CC1=NNC(=O)C1CC(=O)N/N=C(/C)c1cccc([N+](=O)[O-])c1 (centres undefined),11.1,-4.9,i,-32.1,/,6.3,4.6,7.4,
Cc1ccc([C@@H]2CC=C(C(=O)O)CN2S(=O)(=O)c2ccc(C)cc2)cc1,/,/,/,-0.5,0.2,-1.5,1.9,2.1,

# Filtered by structure: the entries above containing fluorine (9)
SMILES,PABP FP inh,eIF4H FP inh,Rce1 inh,Env fusion inh,Yeast UUG start,CSC inhib,MT1-MMP act inh,MT1-MMP act inh RFP,others
Cc1nn(-c2ccccc2)c(C)c1C(=O)NNC(=O)C(F)(F)F,-0.4,-7.8,i,-23.7,8.9,-4.4,-0.1,1.6,
COc1cnc(-c2cccc(C(F)(F)F)c2)[nH]c1=O,-5.4,5.0,i,-12.7,/,-6.0,3.7,7.2,
Cc1ccc(-c2csc(NC(=O)Cc3ccc(F)cc3)n2)o1,0.6,-1.0,i,12.6,-28.4,3.1,-4.8,-3.8,
Cc1cc(NC(=O)NCc2ccccc2)c(=O)n(Cc2ccccc2F)c1,-1.7,-6.4,i,18.4,-11.1,-8.6,-10.6,-8.1,
CC1=C(C)CC(C(=O)Nc2nc(-c3ccc(F)cc3)c(C)s2)C(C(=O)O)C1 (centres undefined),1.9,0.1,i,2.7,/,0.9,1.6,4.1,
Cc1cc(C(F)(F)F)nn1CC(=O)N1CCOCC1,2.5,-2.7,i,/,-14.9,5.8,-2.6,0.9,
COc1ccc(OCC(=O)N2N=C(C(F)F)CC2(O)C(F)F)cc1 (centres undefined),-0.1,-7.8,i,-67.8,/,/,7.3,6.5,
O=c1[nH][nH]c(C(F)(F)F)c1C=NCc1cccs1,-5.7,-1.0,i,-7.0,-6.1,-12.3,1.2,0.8,
FC(F)(F)c1ccc(N2CCOCC2)c(Nc2nc3ccccc3n3cnnc23)c1,-9.2,-4.1,i,/,-4.5,13.8,-5.1,0.0,

# Compound activity (PubChem BioAssay)
